SARS PLpro yeast – SARS-CoV PLP inhibition in yeast. S. cerevisiae expressing SARS-CoV PLpro, growth rescue; control for the full effect not named in the record. Potency, µM (series often up to 32.9 µM), for inactives: at the top dose activity, positive = growth rescue. 330,000 tested, 0.19% active. AID 485353; active means well fitted rising curve with a large enough effect; inconclusive means small, poorly fitted or top-dose-only effect; inactive means no such curve, though single readings can be large or run the other way; note: 0% is about no effect; nearly all actives have a fitted effect of over 55% in size; growth read by luminescence after 48 h
Cruzain inh Det – inhibitors of Trypanosoma cruzi cruzain with detergent; 200,000 tested, 0.43% active; AID 1478; purified cruzain, Z-FR-AMC fluorescence, 0.01% Triton; Potency, µM, inactives show max response, negative = inhibition, actives largely listed as inhibitors;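 note: plate controls were neutral wells for no effect and buffer without enzyme for full effect; nearly all actives have a fitted effect of over 40% in size; top concentration of the series not given in the record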
Target sequence (P25779 123-467 limits assumed): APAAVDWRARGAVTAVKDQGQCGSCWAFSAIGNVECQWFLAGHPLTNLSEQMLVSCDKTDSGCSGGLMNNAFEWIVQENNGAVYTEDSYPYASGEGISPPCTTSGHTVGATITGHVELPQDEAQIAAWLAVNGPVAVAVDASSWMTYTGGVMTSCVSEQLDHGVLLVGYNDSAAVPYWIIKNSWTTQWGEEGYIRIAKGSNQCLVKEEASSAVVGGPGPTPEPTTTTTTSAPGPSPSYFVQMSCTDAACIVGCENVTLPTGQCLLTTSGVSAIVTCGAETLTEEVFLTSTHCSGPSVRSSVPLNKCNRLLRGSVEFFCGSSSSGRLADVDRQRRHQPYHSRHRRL
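In this qHTS format, compounds are incubated with 1.5 nM cruzain for 15 min at room temperature before 2 uM Z-FR-AMC is added. Release of AMC is followed at 360/450 nm, and progress is taken as the 60 s fluorescence difference.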
Lassa entry inh – inhibitors of Lassa virus binding or cell entry. Lassa virus pseudotype entry inhibition, cell reporter; control for the full effect not named in the record. Potency, µM (titrated, usually from 37.9 µM), for inactives: at the top dose activity change, negative = inhibition, usual class: inhibitors. 300,000 tested, 1.2% active; active means well fitted inhibition curve with a large enough effect; inconclusive means small, poorly fitted or top-dose-only effect, or effect the other way; inactive means flat fitted curve, though single readings scatter; tested in HEK293 cells; note: % is set by controls: 0 for no effect and ±100 for the full control effect; nearly all actives have a fitted effect of over 50% in size; luciferase read-out
Marburg entry inh – inhibitors of Marburg virus binding or cell entry; Marburg virus pseudotyped entry inhibition, cell reporter; control for the full effect not named in the record; about a third of the inactives were read at about 46 µM; Potency, µM (top dose mostly 37.8 µM), inactives show top-dose activity change, negative = inhibition, hits mostly inhibitors; 300,000 tested, 1.8% active; active = well fitted inhibition curve with a large enough effect; inconclusive = small, poorly fitted or top-dose-only effect, or effect the other way; inactive = flat fitted curve, though single readings scatter; tested in HEK293 cells; about a fifth of its hits are not listed in these tables; note: % is set by controls: 0 for no effect and ±100 for the full control effect; luciferase read-out
Cruzain inh noDet – inhibitors of Trypanosoma cruzi cruzain without detergent; P25779; purified cruzain, Z-FR-AMC fluorescence, no detergent; Potency, µM, for the others: max response, negative = inhibition, most hits filed as inhibitors; 200,000 tested, 2.3% active; AID 1476;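 note: plate controls were enzyme without inhibitor for no effect and buffer without enzyme for full effect; nearly all actives have a fitted effect of over 40% in size; top concentration of the series not given in the record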
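Purified cruzain at 1.5 nM, pre-incubated 15 min with compound at room temperature in 100 mM sodium acetate pH 5.5, 5 mM DTT, 0.00005% Triton X-100. Reaction started with 2 uM Z-FR-AMC; AMC fluorescence increase over 60 s gives rate.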
NS1 inh – influenza NS1 inhibition. S. cerevisiae slowed by influenza A NS1, growth recovery by OD600. Potency, µM (titrated, usually from 46.1 µM), inactives show at the highest dose activity, positive = more growth. 270,000 tested, 0.4% active. AID 2326; active means well fitted rising curve with a large enough effect; inconclusive means small, poorly fitted or top-dose-only effect; inactive means no such curve, though single readings can be large or run the other way; note: nearly all actives have a fitted effect of over 50% in size
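A cell-based growth assay was used: compounds that relieve NS1-induced slow growth of budding yeast raise OD600. Assay medium was yeast nitrogen base with ammonium sulphate and -URA supplement, pH 6.0, with 2% galactose.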
RE007 growth inh – less growth of the S. pombe RE007 Vpr strain. Potency, µM (titrated, usually from 92.2 µM), for the others: top-dose activity change, negative = less growth. S. pombe RE007 Vpr strain, BacTiter-Glo ATP luminescence, 24 h; control for the full effect not named in the record. 360,000 tested, 0.21% active; active = well fitted falling curve with a large enough effect; inconclusive = small, poorly fitted or top-dose-only effect; inactive = no such curve, though single readings can be large or run the other way;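 note: % is set by controls: 0 for no effect and ±100 for the full control effect; nearly all actives have a fitted effect of over 50% in size; the assay follows cell death caused by Vpr and the record does not say whether a fall means rescue or toxicity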
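Fission yeast RE007 carrying one integrated HIV-1 vpr copy, seeded at OD 0.01 in PMG+AL medium with 23 nL pinned compound. Grown 24 h at 30 degrees; viability read by BacTiter-Glo luminescence after 5 min.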
2A StopGo – lowers the luciferase signal of an FMDV 2A StopGo reporter; human cells with a luciferase reporter of 2A StopGo recoding; control for the full effect not named in the record; Potency, µM (series often up to 57.9 µM), for the others: at the highest dose signal change, negative = less light; 410,000 tested, 1.2% active; AID 1159524; active = well fitted falling curve with a large enough effect; inconclusive = small, poorly fitted or top-dose-only effect; inactive = no such curve, though single readings can be large or run the other way; tested in HEK293T cells; note: % is set by controls: 0 for no effect and ±100 for the full control effect; nearly all actives have a fitted effect of over 45% in size; luciferase light after 4 h
* hit, by the source's call; u = inconclusive; x = no result given; & = joins results of further samples; [ ] = another dose, or the depositor's remark. Unless noted, calls come from the whole dose curve; as a rule, active = well fitted curve in the direction sought with a large enough effect; inconclusive = small, poorly fitted or top-dose-only effect, or another doubt; inactive = no such curve, though single readings can be large; an effect the other way counts as inactive or inconclusive. Potency is the fitted concentration of half-maximal effect.

SMILES	SARS PLpro yeast	Cruzain inh Det	Lassa entry inh	Marburg entry inh	Cruzain inh noDet	NS1 inh	RE007 growth inh	2A StopGo
O=C(NCCc1ccccc1)c1sc2ncccc2c1-n1cccc1	x	-5.0%	9.2%[46.1 µM]	x	-4.1%	x	x	-3.7%
COc1ccc(-c2noc(-c3cccs3)n2)cc1OC	-0.6%	x	-21.4%	u	x	-23.8%	7.4%	-6.7%
Cc1c(Cl)ccc2c(C(O)CBr)cc(-c3ccccc3)nc12 (stereo not drawn)	x	x	u	u	x	x	u	u
COc1ccc(N2CCC(CNC(=O)Nc3ccccc3)C2)cc1 (stereo not drawn)	-12.9%	-1.7%	-6.8%	-15.9%&-15.9%	-8.0%	2.7%	-8.4%	-6.5%
Cc1ccccc1Nc1c(-c2ccc(N3CCOCC3)cc2)nc2cccc(C)n12	x	-1.9%	11.2%[46.1 µM]	u	-8.6%	x	x	9.9%
COc1ccc(Nc2nc(-c3sc(C)nc3C)cs2)c(OC)c1	-29.3%	x	x	x	x	-107.8%	0.7%	-15.5%
COc1cccc(NC(=O)Cn2c(=O)oc3cc(S(=O)(=O)N4CCCCC4)ccc32)c1	x	0.9%	x	20.3%[46.1 µM]	-1.2%	x	x	0.0%
CCOc1ccc2nc(NC(=O)c3cc(=O)c4ccc(C)cc4o3)sc2c1	x	-16.0%	8.1%[46.1 µM]	u	3.9%	x	x	-21.1%
COC(=O)c1cc(S(=O)(=O)NCC2CCN(Cc3ccc(F)cc3)CC2)c[nH]1	14.0%	3.9%	8.0%&12.2%[46.1 µM]	-0.1%&-0.1%[46.1 µM]	-20.9%	-0.9%	7.3%	2.5%&7.5%
CCN1C(=O)CC(C(=O)Nc2ccc(F)cc2)SC1=Nc1cccc(OC)c1 (stereo not drawn)	0.0%	-10.9%	-22.0%	0.5%	-6.3%	-37.7%	-26.2%	u
Fc1ccc(N2C(=S)SC(=Nc3ccccc3)C2=Nc2ccccc2)cc1	x	x	-15.4%	-23.3%	x	x	-0.2%	11.4%
Cn1c(-c2ccccc2)c(C(=O)CC#N)c2ccccc21	-2.6%	x	-12.7%[46.1 µM]	7.2%[46.1 µM]	x	x	-4.9%	u
COc1ccc(N(C)C(=O)C2CCN(S(=O)(=O)c3cccc4nsnc34)CC2)cc1	-1.6%	x	u	u	x	15.7%	-1.0%	-15.9%
CN1CCN(c2cc(=O)n(C3CCCCC3)c(=O)[nH]2)CC1	-2.0%	-2.0%	x	x	-1.1%	11.1%	-7.5%	-15.2%
Cc1ccc(SCc2cc(=O)n3[nH]cnc3n2)cc1	7.5%	-2.5%	24.8%	3.8%	1.4%	4.6%	5.7%	3.3%
CC(=O)c1cccc(NC(=O)Nc2ccc3c(c2)N(C)C(=O)CS3)c1	1.6%	-7.0%	-23.4%	-30.7%	-8.5%	-22.6%	13.7%	u
Nc1c(-c2ccccc2)c(CSc2nc3ccccc3[nH]2)nn1-c1ccc(Cl)cc1	-8.5%	4.8%	u	u	-17.2%	u	5.9%	0.0%
CCOc1ccc(NS(=O)(=O)c2ccc3[nH]c(=O)cc(C(=O)O)c3c2)cc1	-0.8%	x	2.2%[46.1 µM]	4.3%[46.1 µM]	x	5.6%	8.5%	-10.8%
Cc1nc(CCNC(=O)CC2C(=O)NCCN2Cc2ccccc2)nc2c1CCC2 (stereo not drawn)	-5.9%	x	6.8%	-2.7%	x	17.0%	-8.8%	-7.7%
O=C(Nc1cccc(C(F)(F)F)c1)c1cccnn1	-4.5%	x	3.9%[46.1 µM]	2.4%[46.1 µM]	x	-2.1%	-13.5%	-7.2%
CC(C)CCNC(=O)C(=O)NCc1ccccc1	-0.6%	x	x	x	x	5.2%	0.5%	26.1%
Cc1ccc(-n2[nH]c(C)c(C=NCc3ccncc3)c2=O)cc1	-1.1%	x	28.0%[46.1 µM]	u	x	0.7%	-29.7%	30.5%[activator]
CCOC(=O)C1CCN(C(=O)C2CCCCC2)CC1	0.5%	1.0%	3.4%	0.6%	4.9%	-2.5%	-13.4%	-4.3%
C=CCn1c(-c2cccc(OC)c2)nc2nc3ccccc3nc21	u	-12.0%	4.2%	8.1%	0.7%	-9.4%	14.0%[3.69 µM]	73.2%[activator]
COc1ccccc1-n1cc(-c2ccc(C)cc2)nc1S(=O)(=O)CC(=O)Nc1ccccc1C(F)(F)F	x	1.7%	0.6%[46.1 µM]	u	11.7%	x	x	40.2%[activator]
OCCN1CCN(CCO)C1=S	x	x	14.6%[46.1 µM]	-0.6%[46.1 µM]	x	x	-7.2%	6.7%
COc1cccc(NC2=NCC(=O)N2Cc2cccs2)c1	3.7%	2.8%	-3.3%	0.0%[46.1 µM]	6.7%	2.1%	1.1%	1.4%
CCOc1ccc2nc(NC(=O)C3CCCN(S(=O)(=O)c4cccc5nonc45)C3)sc2c1 (stereo not drawn)	-0.9%	-1.9%	-11.4%	u	u	9.6%	6.8%	-24.6%
CCOc1ccccc1NC(=O)N1CCCC1C(=O)Nc1nnc(CC)s1 (stereo not drawn)	1.7%	11.0%	15.8%	2.8%	1.3%	-6.1%	18.7%	17.0%
COc1ccc(-c2nc3n(n2)C(c2ccc(OC)cc2)C(C(=O)Nc2cccnc2)=C(C)N3)cc1 (stereo not drawn)	x	-4.0%	0.7%[46.1 µM]	-29.7%[46.1 µM]	u	x	x	-10.9%
CCC(=O)N1CCN(c2nc(-c3ccc(Cl)cc3)cs2)CC1	-32.7%	-7.5%	13.1%	6.1%	u	3.8%	u	-13.1%
CCCOc1ccc(CNC(=O)C2CCN(C(=O)N3CCOc4ccccc43)CC2)cc1	-4.3%	x	x	x	x	-21.4%	6.4%	u
CCn1c(SCC(=O)N2CCOCC2)nnc1-c1ccco1	1.8%	x	19.2%[46.1 µM]	10.0%[46.1 µM]	x	-8.7%	5.1%	5.0%
COc1ccc(N2CC(NC(=O)c3ccc(Br)o3)CC2=O)cc1 (stereo not drawn)	x	0.4%	22.0%[46.1 µM]	x	-1.0%	x	x	0.2%
COc1cc(Cl)c(C)cc1NC(=O)CSc1ncc(S(=O)(=O)c2ccc(C(C)(C)C)cc2)c(=O)[nH]1	x	28.2µM*	x	5.7%[46.1 µM]	10.4%	x	x	-18.9%
COc1ccc(/C=N/NC(=O)CC(=O)N/N=C/c2ccc(OC)cc2)cc1	-0.3%	x	15.9%[46.1 µM]	u	x	x	-9.1%	-5.0%

6 neighbouring compounds out of the list so far, quoted:
SMILES	SARS PLpro yeast	Cruzain inh Det	Lassa entry inh	Marburg entry inh	Cruzain inh noDet	NS1 inh	RE007 growth inh	2A StopGo
CCOc1ccc(NS(=O)(=O)c2ccc3[nH]c(=O)cc(C(=O)O)c3c2)cc1	-0.8%	x	2.2%[46.1 µM]	4.3%[46.1 µM]	x	5.6%	8.5%	-10.8%
Cc1nc(CCNC(=O)CC2C(=O)NCCN2Cc2ccccc2)nc2c1CCC2 (stereo not drawn)	-5.9%	x	6.8%	-2.7%	x	17.0%	-8.8%	-7.7%
O=C(Nc1cccc(C(F)(F)F)c1)c1cccnn1	-4.5%	x	3.9%[46.1 µM]	2.4%[46.1 µM]	x	-2.1%	-13.5%	-7.2%
CC(C)CCNC(=O)C(=O)NCc1ccccc1	-0.6%	x	x	x	x	5.2%	0.5%	26.1%
Cc1ccc(-n2[nH]c(C)c(C=NCc3ccncc3)c2=O)cc1	-1.1%	x	28.0%[46.1 µM]	u	x	0.7%	-29.7%	30.5%[activator]
CCOC(=O)C1CCN(C(=O)C2CCCCC2)CC1	0.5%	1.0%	3.4%	0.6%	4.9%	-2.5%	-13.4%	-4.3%

More entries
SMILES	SARS PLpro yeast	Cruzain inh Det	Lassa entry inh	Marburg entry inh	Cruzain inh noDet	NS1 inh	RE007 growth inh	2A StopGo
CCOc1cc(CNCCc2ccccc2F)ccc1OC	-0.6%	x	x	x	x	4.4%	4.9%	2.6%
CCn1nc(NC(=O)c2ccccn2)c2cc3cccc(C)c3nc21	2.2%	4.1%	22.6%	28.5%	u	-7.1%	31.0%	0.0%
CCn1c(SCC(=O)NC2CCCCC2)nc2c(c1=O)SC(C)C2 (stereo not drawn)	4.0%	6.6%	11.6%	25.8%	-6.1%	-42.6%	-19.1%	-24.0%
CC(C)NC(=O)CC1C(=O)N(Cc2ccccc2)C(C)c2nc3ccccc3n21 (stereo not drawn)	-5.8%	x	-15.4%[46.1 µM]	3.2%[46.1 µM]	x	x	12.9%	-8.0%
Cc1ccc(NC(=O)CCC(=O)NNC(=S)Nc2ccc(F)cc2F)cc1C	4.5%	x	x	x	x	13.3%	23.8%	-3.7%
O=C(COC(=O)CCc1ccccc1)NCc1ccc2c(c1)OCO2	-11.6%	x	-0.2%[46.1 µM]	12.9%[46.1 µM]	x	x	0.0%	-3.3%
COc1ccc(Cn2c(/C=C/c3ccccc3)nc3ccccc32)cc1	-21.9%	-9.1%	20.9%	u	-2.7%	-95.6%	-20.3%	11.2%
COc1ccc(C(C)=O)cc1CC(C(=O)c1ccc(C)c(C)c1)N(C)C (stereo not drawn)	-19.4%	-1.1%	u	-0.6%	10.8%	4.0%	-10.3%	3.5%
COc1ccc(N(C(C)C(=O)NCc2ccco2)S(C)(=O)=O)cc1 (stereo not drawn)	-2.1%	-4.8%	4.3%	0.4%[46.1 µM]	u	-1.6%	13.2%	-4.1%
CCOc1cccc(C2/C(=C(/O)c3ccc4c(c3)CC(C)O4)C(=O)C(=O)N2Cc2ccncc2)c1 (stereo not drawn)	-1.3%	x	-11.8%[46.1 µM]	3.1%[46.1 µM]	x	6.3%	2.1%	-7.0%
O=C(c1cc(Cl)ccc1F)N1CCCC(Nc2ccc3c(c2)OCCO3)C1 (stereo not drawn)	0.7%	x	-3.5%	20.1%	x	-7.7%	-13.9%	-23.1%
O=C(OCCCN1CCCC1)C1(c2ccccc2)CCCC1	-6.6%	6.3%	2.0%	u	-3.8%	2.0%	-26.4%	-7.6%
COc1cc(C)c(C(C)C)cc1S(=O)(=O)NCCCn1ccnc1	-4.1%	3.2%	0.8%	21.2%	8.7%	10.0%	20.6%	91.7%[activator]

An unsorted share of the library; overall some 4.6% were active at least once.
